Screening results: PubChem BioAssay, National Center for Advancing Translational Sciences (NCATS)
CtBP-E1A blk – CtBP/E1A binding inhibition. AlphaScreen GST-E1A/His-CtBP binding, 1536-well; active compounds read low; control for the full effect not named in the record. 0.49% of 340,000 active. activity change, % (no concentration beside the values). AID 651724; in the data active means activity change below about -65%; inconclusive means about -30% to -65%; inactive means above about -30%; note: % is set by controls: 0 for no effect and ±100 for the full control effect
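Steps: dispense buffer (Tris pH 8.0, NaCl 300 mM, TCEP 1 mM, BSA, Tween 20); add 5X protein mix (GST-E1A, His-CtBP, 125 nM each); pin 23 nL compound; 2 h at 37 °C, dark; add 5X beads (50 ug/mL); 1 h; read.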
Sfp inh – blocks B. subtilis Sfp PPTase activity | Biochemical Sfp PPTase activity, qHTS | Potency, µM, for inactives: max response, negative = inhibition, hits mostly inhibitors | AID 1490 | 3.5% of 310,000 active | Q9F4F7; active = well fitted inhibition curve with a large enough effect; inconclusive = small, poorly fitted or top-dose-only effect, or another doubt; inactive = no such curve, though single readings can be large or run the other way;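 note: the enzyme is Sfp with the accession as filed and its product quenches rhodamine fluorescence; potency is the fitted concentration of half-maximal effect; 0% = enzyme reaction without inhibitor and -100% = no enzyme wells; top concentration of the series not given in the record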
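Fluorescence-quenching assay: 15 nM Sfp-PPTase preincubated 15 min at room temperature with compound, then 5 uM rhodamine-CoA and 12.5 uM BHQ-2-labelled YbbR peptide added. Fluorescence (ex 525/em 598 nm) read at start and after 30 min; difference gives rate.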
Menin-MLL FL inh – menin-MLL binding inhibition, fluorescein peptide; Fluorescence polarization, fluorescein-MLL peptide displacement from menin; FP activity change, % at 61.4 µM; 290,000 tested, under 10 active; AID 1766; inconclusive = falling polarisation curve, or a change in total fluorescence; inactive = total fluorescence flat and polarisation flat or rising; no compound was filed as active; the % refers to the polarisation; negative = inhibition;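 note: % of control where 0% means no effect; inhibitors lower the polarisation; unlabelled MLL peptide was the positive control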
ClpP mod – qHTS Assay for Activators of ClpP; ATP-dependent Clp protease proteolytic subunit (Bacillus subtilis (strain 168)), P80244; AID 651965, 2013; purified B. subtilis ClpP, FRET peptide cleavage, 20 min; Potency, µM (doses to about 57.5 µM), for inactives: at the top dose activity change, negative = active; 1.9% of 340,000 active; active = well fitted falling curve with a large enough effect; inconclusive = small, poorly fitted or top-dose-only effect; inactive = no such curve, though single readings can be large or run the other way; note: potency is the fitted concentration of half-maximal effect; the source files actives as falling curves though it sought activators and does not explain the sign; nearly all actives have a fitted effect of over 65% in size; many hits overshoot -100%
Target sequence (P80244 whole entry, looked up): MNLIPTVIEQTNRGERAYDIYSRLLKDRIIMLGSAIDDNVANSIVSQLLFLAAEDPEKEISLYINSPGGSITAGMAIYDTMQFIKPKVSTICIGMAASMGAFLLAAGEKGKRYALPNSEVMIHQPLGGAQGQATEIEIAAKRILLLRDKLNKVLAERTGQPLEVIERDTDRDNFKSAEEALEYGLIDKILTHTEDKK
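ClpP 10 microg/mL final, pH 8 Tris/KCl buffer with BSA, glycerol, Tween-20; compound pinned in; FRET-FV substrate; RT 20 min; Ex320/Em430; ΔFRET vs ADEP 5.8 microM, DMSO, no enzyme.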
gsp antagonist – antagonists of gsp mutant (McCune-Albright syndrome); Potency, µM (top dose mostly 76.9 µM), inactives show at the top dose activity change, negative = inhibition, usual class: inhibitors; AID 624288; 0.4% of 340,000 active; gsp-mutant cells, cAMP HTRF, 30 min; control for the full effect not named in the record; active = falling curve of any shape with a large fitted effect; inconclusive = falling curve, mostly with a smaller effect; inactive = flat or rising curve; cell line not stated here;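 note: intracellular cAMP measured with PDE inhibitor Ro 20-1724 present during compound exposure; potency is the fitted concentration of half-maximal effect; % is set by controls: 0 for no effect and ±100 for the full control effect; nearly all actives have a fitted effect of over 65% in size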
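Cells, 2000/well, grown 16–24 h in DMEM 10% FBS with 0.5 mg/ml G418, then compounds plus […] (300 uM addition stock), 30 min at 37C. cAMP read by HTRF (cAMP-d2 and anti-cAMP antibody-K in lysis buffer) after 30 min RT.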
TRPV1 PAM – enhances activation of the human vanilloid receptor TRPV1; 0.02% of 320,000 active; TRPV1-expressing cells, Fluo-8 calcium influx, capsaicin EC20 potentiation; host cell line not named in the record; control for the full effect not named in the record; AID 540277; potentiation, % at 8.33 µM; Q8NER1; active means potentiation above 80%; inconclusive means 30% to 80%; inactive means below 30%; note: 0% is about no effect
Target sequence (Q8NER1 whole entry, looked up): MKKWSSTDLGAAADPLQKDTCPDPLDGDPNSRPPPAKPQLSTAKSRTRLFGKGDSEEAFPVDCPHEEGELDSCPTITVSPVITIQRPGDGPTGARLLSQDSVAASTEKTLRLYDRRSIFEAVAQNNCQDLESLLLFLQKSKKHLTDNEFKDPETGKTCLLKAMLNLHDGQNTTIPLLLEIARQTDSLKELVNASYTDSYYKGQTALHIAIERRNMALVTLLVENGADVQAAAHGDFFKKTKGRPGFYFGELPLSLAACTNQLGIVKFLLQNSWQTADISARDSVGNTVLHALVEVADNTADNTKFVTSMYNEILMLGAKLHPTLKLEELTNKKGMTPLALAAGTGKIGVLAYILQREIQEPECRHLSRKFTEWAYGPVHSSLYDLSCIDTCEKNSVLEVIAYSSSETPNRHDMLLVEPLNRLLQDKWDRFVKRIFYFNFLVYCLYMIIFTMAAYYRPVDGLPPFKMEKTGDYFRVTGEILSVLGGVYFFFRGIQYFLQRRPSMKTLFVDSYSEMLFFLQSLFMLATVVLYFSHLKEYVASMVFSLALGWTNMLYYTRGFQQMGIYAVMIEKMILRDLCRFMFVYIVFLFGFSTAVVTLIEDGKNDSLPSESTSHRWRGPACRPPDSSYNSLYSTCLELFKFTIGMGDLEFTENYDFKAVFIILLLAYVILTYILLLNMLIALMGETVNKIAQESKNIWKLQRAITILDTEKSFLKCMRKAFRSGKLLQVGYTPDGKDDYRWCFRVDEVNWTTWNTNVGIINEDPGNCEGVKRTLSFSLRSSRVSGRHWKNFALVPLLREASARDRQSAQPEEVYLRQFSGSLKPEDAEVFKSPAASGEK
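Cells expressing TRPV1 were dye-loaded with Fluo-8 and read kinetically: 10 s baseline, 3 min after compound (agonist portion), then 2 min after EC20 capsaicin (allosteric enhancer portion). Calcium-bound dye fluorescence at 480/520 nm.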
gsp ag – gsp mutant agonism | AID 624287 | Potency, µM (doses to about 76.9 µM), for inactives: at the top dose activation (cAMP increase), usual class: activators | gsp mutant cells, cAMP HTRF, 30 min; control for the full effect not named in the record | 0.13% of 340,000 active; active = well fitted activation curve with a large enough effect; inconclusive = small, poorly fitted or top-dose-only effect, or another doubt; inactive = no such curve, though single readings can be large or run the other way; cell line not stated here;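 note: phosphodiesterase inhibitor Ro 20-1724 added with compounds to block cAMP breakdown; potency is the fitted concentration of half-maximal effect; nearly all actives have a fitted effect of over 60% in size; about a fifth of the inactives were tested at one dose only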
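Cells stably selected in G418 were plated at 2000/well, grown 16-24 hr, then given compounds in DMSO with the PDE inhibitor […] (300 uM solution added) for 30 min at 37C; cAMP was read by HTRF.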
An asterisk follows results filed as active; ? = inconclusive; . = not tested or not shown; & = joins results of further samples; [ ] = dose if it differs, or a comment.

SMILES | CtBP-E1A blk | Sfp inh | Menin-MLL FL inh | ClpP mod | gsp antagonist | TRPV1 PAM | gsp ag
COc1ccc(NS(=O)(=O)c2ccc(S(=O)(=O)N3CCCC3)cc2)cc1Cl | -13 | 20% | 0.1 | -5.1% | ? | -19 | ?
CCOc1cc(C(=O)O)ccc1OCCOc1ccccc1 | -11 | 14% | . | . | -2% | -3 | -4%[15.4 µM]
CC1=NNC(=O)C1C(c1ccccc1)C1C(=O)NN=C1C (stereo not drawn) | . | ? | 4.8 | . | . | -8 | .
CC1CCCCN1C(=O)CCS(=O)(=O)Cc1ccccc1 (stereo not drawn) | 0 | -1% | -1.8 | . | 6% | 0 | 29%
CCN1CCN(Cc2ccc(NC(=O)c3ccc(C)c(NC(=O)c4c[nH]c5cc(C(F)(F)F)ccc5c4=O)c3)cc2C(F)(F)F)CC1 | -10&-6 | 79µM* | -1.0 | -5.5%&-2.3% | 10% | -4 | -69%
CN(C)/C=C/c1onc(-c2c(Cl)cccc2Cl)c1C#N | -2 | 8% | 16 | . | -6% | -6 | 5%[15.4 µM]
Cc1ccc(C(=O)NC(C)C2CC3CCC2C3)cc1 (stereo not drawn) | 5 | . | . | . | -4% | . | -3%[15.4 µM]
COC(=O)c1ccc(C(C(=O)NC2CCCCC2)N(CCc2ccccc2)C(=O)Cc2cccs2)cc1 (stereo not drawn) | -12 | 10% | 5.8 | 1.2% | 9% | -17 | -27%
COc1ccccc1CNC(=O)/C=C/c1ccc(S(=O)(=O)N2CCOCC2)cc1 | 8 | 17% | -0.6 | . | . | -3 | 11%[15.4 µM]
C=CCn1c(SCC(=O)Nc2cccc(C)c2)nnc1-c1cnccn1 | -1 | 5% | 2.2 | -3.2% | 0% | 3 | 32%
S=c1[nH]nc(NCCCN2CCOCC2)s1 | -6 | 35µM* | -1.2 | -1.0% | 6% | -6 | -4%
COC(=O)c1c(C(=O)OC)c(-c2ccc(Cl)c(Cl)c2)n2c1CCC2 | ? | -5% | 2.6 | ? | -4% | -3 | 32%
Cc1cc(C)c2cc(C)c(SCC(=O)NCc3ccco3)nc2c1 | -1 | 4% | 3.2 | -6.9% | -11% | -12 | 50%
C=CCn1nnnc1SCC(=O)Nc1cccc(OC)c1 | 1 | 20% | -0.2 | 0.1% | -4% | -7 | 20%
COc1ccccc1OCCNC(=O)Nc1ccc(Br)cc1 | 2 | 20% | -5.5 | -2.5% | 0% | 9 | 10%[15.4 µM]
COc1ccc(S(=O)(=O)N2CCC(C(=O)OCC(=O)c3ccccc3)CC2)cc1[N+](=O)[O-] | -6 | 16% | 3.3 | -3.7% | 2% | 7 | -3%[15.4 µM]
COc1ccc(NC(=O)CN2CCN(c3ccccn3)CC2)cc1Cl | 1 | 1% | -6.4 | -4.8% | 4% | 25 | -3%
CC1(C(=O)N/N=C/c2ccc3c(c2)OCO3)CC1(Br)Br (stereo not drawn) | 1 | 4% | . | -4.8% | -8% | -13 | 1%
O=C(Cn1nc(C(=O)O)c2ccccc2c1=O)Nc1ccc(F)cc1 | 0 | 2% | 0.1 | . | -2% | -26 | -6%
N=c1ccn(CC(=O)c2ccc(-c3ccccc3)cc2)cc1 | -11 | -13% | -3.0 | . | 1% | -5 | -11%[15.4 µM]
CCN(CC(=O)Nc1ccc(NC(C)=O)cc1)C(=O)CSC(=S)N1CCCC1 | . | . | . | 1.9% | 3% | 0 | -8%
Cc1ccc(NC(=O)Cc2nnc(SCC(=O)Nc3nncs3)n2C)c(C)c1 | -5 | 16% | -0.5 | . | 0% | 3 | 7%
O=C(CN1C(=O)CSc2ccc(S(=O)(=O)N3CCCCC3)cc21)NCc1ccccc1Cl | 0 | 3% | . | -0.1% | -21% | -5 | -26%
CCOC(=O)CNc1nnc(SCC(=O)OCC)[nH]c1=O | 24 | -28% | 4.4 | 0.7% | -19% | 1 | -39%[inhibitor]
CC(C(=O)NCC1CCCCC1)N1CCN(S(=O)(=O)c2ccccc2F)CC1 (stereo not drawn) | 4 | 2% | -2.8 | 0.0% | -5% | -2 | -12%

Some of the entries above in another layout.
Each structure is followed by: CtBP-E1A blk | Sfp inh | Menin-MLL FL inh | ClpP mod | gsp antagonist | TRPV1 PAM | gsp ag
Cc1cc(C)c2cc(C)c(SCC(=O)NCc3ccco3)nc2c1
→ -1 | 4% | 3.2 | -6.9% | -11% | -12 | 50%
C=CCn1nnnc1SCC(=O)Nc1cccc(OC)c1
→ 1 | 20% | -0.2 | 0.1% | -4% | -7 | 20%

Back to the main list, repeating the 3 entries before the break.
SMILES | CtBP-E1A blk | Sfp inh | Menin-MLL FL inh | ClpP mod | gsp antagonist | TRPV1 PAM | gsp ag
O=C(CN1C(=O)CSc2ccc(S(=O)(=O)N3CCCCC3)cc21)NCc1ccccc1Cl | 0 | 3% | . | -0.1% | -21% | -5 | -26%
CCOC(=O)CNc1nnc(SCC(=O)OCC)[nH]c1=O | 24 | -28% | 4.4 | 0.7% | -19% | 1 | -39%[inhibitor]
CC(C(=O)NCC1CCCCC1)N1CCN(S(=O)(=O)c2ccccc2F)CC1 (stereo not drawn) | 4 | 2% | -2.8 | 0.0% | -5% | -2 | -12%
COC(=O)c1cc2c(C)[nH]c(C)c2cc(C(=O)OC)c1=O | 2 | -12% | 0.1 | 1.7% | 3% | 0 | -52%[inhibitor]
Nc1c(N(Cc2ccco2)C(=O)COc2ccccc2)c(=O)[nH]c(=O)n1Cc1ccccc1 | 0 | . | . | 2.5% | 0% | 28 | -36%[inhibitor]
CCOc1ccccc1N1CCN(S(=O)(=O)c2cc(C)ccc2OC)CC1 | 0 | 0% | 2.3 | . | -13% | -7 | -25%
Cn1cc(Br)c(C(=O)N/N=C/c2cccc(OC3CSC3)c2)n1 | -5 | 3% | -2.6 | -2.0% | -2% | -3 | -18%
CCOc1cc(NC(=S)Nc2ccccc2)c(OCC)cc1NC(=O)c1ccccc1 | -24 | -14% | -0.8 | -20% | -4% | . | -13%
Cn1cc(S(=O)(=O)Nc2ccc(Br)cc2F)c(=O)n(C)c1=O | -8 | 4% | 1.4 | -0.4% | 2% | . | -23%
Cc1cc(O)c(Sc2ncn[nH]2)cc1NS(=O)(=O)c1ccc(Cl)cc1 | 12 | . | . | 0.4% | 5% | 0 | -11%
O=C(Cn1c(O)c(N=NC(=O)c2ccncc2)c2ccccc21)Nc1ccccc1 | 6 | -23% | 1.3 | . | 9% | -4 | -22%[15.4 µM]
NC1=NC2(CCCC2)n2c(nc3ccccc32)N1 | -16 | -3% | 2.3 | . | 8% | 14 | -22%
O=C(O)C1CCN(Cc2cnn(-c3ccccc3)c2-n2cccc2)CC1 | 6 | . | . | -0.5% | 4% | . | -3%
Cc1ccccc1N1CC(c2nc3ccccc3[nH]2)CC1=O (stereo not drawn) | 2 | 12% | -2.9 | 1.8% | 0% | -1 | -11%
Cc1ccc(NC(=O)NCCN2C(=O)C3C4C=CC(C4)C3C2=O)cc1 (stereo not drawn) | -3 | -9% | 9.0 | -2.1% | -6% | 4 | 0%
CN(C)c1nc(N)nc(N(c2ccccc2)c2ccccc2)n1 | -3 | 11% | 2.1 | -3.1% | 5% | -11 | -22%
COC1=C(OC)C(=O)C(CCCCCCCCCCO)=C(C)C1=O | . | 4%&-8% | 5.6&1.7 | . | . | -4 | .
CC(=O)OC(C(=O)Nc1nccs1)c1ccccc1 (stereo not drawn) | 5 | 19% | -0.8 | -3.3% | -12% | 5 | -26%[15.4 µM]
Cc1cc(SCc2c(F)cccc2Cl)nc(=O)[nH]1 | . | 1% | . | 0.1% | 4% | 25 | -14%
NC(=O)c1ccc(SCC(=O)OCC(=O)NCc2ccco2)c([N+](=O)[O-])c1 | -3 | . | . | -7.9% | -12% | 9 | 1%
CC(C)C(=O)NNC(=O)CSc1nnc(-c2ccccc2)c(-c2ccccc2)n1 | . | 9% | 19 | -1.3% | -4% | 2 | 13%
CCN(Cc1ccccc1)C(c1cc2cc(C)ccc2[nH]c1=O)c1nnnn1CCOC (stereo not drawn) | -8 | -7% | 3.6 | -13% | -6% | -3 | -8%
OCCSc1nc(-c2ccccc2)nc2ccc(F)cc12 | . | -1% | 4.6 | -0.8% | -22% | -18 | ?
O=C(CSc1nnc2ccc(-c3ccc(F)cc3)nn12)NCC1CCCO1 (stereo not drawn) | -6 | . | . | . | 12% | 1 | 36%[15.4 µM]
C=CCn1c(-c2ccc(Cl)cc2)cnc1SC(C)C(=O)NC(N)=O (stereo not drawn) | -2 | 12% | -3.1 | . | -10% | 3 | -5%[15.4 µM]
COc1ccc(CC(=O)N2CCN(S(=O)(=O)c3cccs3)CC2)cc1OC | . | 26% | -1.1 | -2.1% | 0% | -1 | 10%
Cn1c(-c2ccc(F)cc2)cc2onc(-c3c(F)cccc3Cl)c2c1=O | 0 | . | . | 6.9% | -10% | . | .
CCC(C)(C)C1CCC2(CC1)NC(=O)N(CC(=O)Nc1nc(-c3ccc(C)cc3)cs1)C2=O (stereo not drawn) | 0 | -5% | 9.7 | -1.7% | 1% | 3 | 13%

Additional compounds follow.
SMILES | CtBP-E1A blk | Sfp inh | Menin-MLL FL inh | ClpP mod | gsp antagonist | TRPV1 PAM | gsp ag
O=S(=O)(c1cnc[nH]1)N1CCN(c2ccc(Cl)cc2)CC1 | 4 | -3% | -1.6 | -0.2% | 6% | 30 | 21%
COC(=O)CSc1nnc(-c2ccco2)o1 | -1 | 0% | -0.5 | 2.2% | -7% | -6 | -16%
CC(C)OCC(O)CS(=O)Cc1ccccc1 (stereo not drawn) | 10 | -5% | 2.3 | -5.5% | 3% | 4 | -11%
Cc1cnc(C(=O)Nc2cccc(S(=O)(=O)N(C)C)c2)cn1 | 15 | 16% | 2.0 | -0.7% | 13% | -2 | ?
O=C(Cc1ccccc1)N1CCN(C(=O)c2ccco2)CC1 | 4 | -10% | 0.8 | 0.1% | 4% | 15 | 10%
COCCCN(C(=O)CSCc1c(C)noc1C)c1c(N)n(Cc2ccccc2)c(=O)[nH]c1=O | -4 | . | . | -1.5% | 9% | -2 | -7%
